Source: PubChem
Rango dissoc inh – qHTS Assay for Inhibitors of RanGTP induced Rango (Ran-regulated importin-beta cargo) - Importin beta complex dissociation; AID 540253, 2011; Biochemical FRET Rango-importin beta, RanGTP-induced dissociation; Snurportin-1 (Homo sapiens) + GTP-binding nuclear protein Ran (Homo sapiens) + Importin …; Potency, µM (titrated, usually from 46.1 µM), inactives show top-dose activity change, negative = inhibition; actives 0.071% (n = 340,000); active means falling FRET ratio curve, often poorly fitted, with flat reads before Ran was added; inconclusive means other falling curves, or compound fluorescence or quenching; inactive means flat or rising ratio curve;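 further: potency means the concentration at half of the fitted maximal effect; % of control where 0% means no effect; nearly all actives have a fitted effect of over 45% in size; -100% = wells without RanGTP and RCC1; the record marks most hits as doubtful in a second field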
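Quantitative HTS using a FRET biosensor: 0.1 uM Rango, 0.25 uM importin beta, 0.6 uM Ran, 2 mM GTP, 0.2 uM RCC1 final, PBS with DTT, Tween-20 and BSA. Post-read taken 45 min after Ran addition.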
GLA inh pH 4.5 – qHTS Assay for Inhibitors of Human alpha-Galactosidase at pH 4.5; purified enzyme, 4-MU-alpha-Gal fluorescence, pH 4.5; Alpha-galactosidase A (Homo sapiens), P06280; 230,000 tested, under 10 active; activity change, negative = inhibition, % at 105 µM; inconclusive = small, poorly fitted or top-dose-only inhibition, or a rising curve; inactive = flat fitted curve, though single readings scatter; no compound was filed as active;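 further: 0% = full activity with enzyme and -100% = basal without enzyme; dose as in the result columns while the protocol names 77 µM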
Rango complex inh – qHTS Assay for Inhibitors of Rango (Ran-regulated importin-beta cargo) - Importin beta complex formation; Potency, µM (doses to about 92.2 µM), for inactives: top-dose inhibition of complex formation; Rango CFP/YFP FRET sensor + importin beta, 45 min; actives 0.031% (n = 340,000); AID 540263, 2011; active = rising FRET ratio curve, often small or poorly fitted; inconclusive = mostly compound fluorescence or quenching in the first reads; inactive = flat curves in all reads;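 further: potency means the concentration at half of the fitted maximal effect; 0% = DMSO wells and 100% = buffer wells lacking importin beta; nearly all actives have a fitted effect of over 15% in size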
Target sequence (Q14974 whole entry, looked up): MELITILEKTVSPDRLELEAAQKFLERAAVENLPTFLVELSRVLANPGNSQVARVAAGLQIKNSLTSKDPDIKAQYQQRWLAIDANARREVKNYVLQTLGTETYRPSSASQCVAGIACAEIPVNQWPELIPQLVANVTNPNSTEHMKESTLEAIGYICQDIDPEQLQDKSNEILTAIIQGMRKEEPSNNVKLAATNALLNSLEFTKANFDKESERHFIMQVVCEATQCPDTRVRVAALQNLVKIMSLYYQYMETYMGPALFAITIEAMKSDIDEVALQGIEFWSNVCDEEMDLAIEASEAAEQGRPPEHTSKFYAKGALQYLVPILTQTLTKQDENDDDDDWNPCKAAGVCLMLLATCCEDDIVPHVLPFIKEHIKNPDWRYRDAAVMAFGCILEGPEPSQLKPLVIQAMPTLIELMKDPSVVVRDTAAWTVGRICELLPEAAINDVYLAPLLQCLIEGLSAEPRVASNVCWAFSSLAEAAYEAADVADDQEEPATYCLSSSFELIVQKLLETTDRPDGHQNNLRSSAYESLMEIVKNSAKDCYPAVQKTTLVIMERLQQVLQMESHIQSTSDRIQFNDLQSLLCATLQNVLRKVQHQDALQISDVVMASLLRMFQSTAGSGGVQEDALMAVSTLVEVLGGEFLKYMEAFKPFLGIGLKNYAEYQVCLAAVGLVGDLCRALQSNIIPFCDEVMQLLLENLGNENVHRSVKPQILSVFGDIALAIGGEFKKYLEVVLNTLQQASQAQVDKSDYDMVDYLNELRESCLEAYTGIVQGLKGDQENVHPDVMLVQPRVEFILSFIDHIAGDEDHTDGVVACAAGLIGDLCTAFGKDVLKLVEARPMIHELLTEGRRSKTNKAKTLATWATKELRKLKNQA
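FRET biosensor (snurportin 1 IBB flanked by EYFP and cerulean), 50 nM, with compound 5 min, then 0.125 microM importin beta in PBS, 1 mM DTT, 0.02% Tween-20, 0.1% BSA. CFP/YFP ratio read after 45 min at room temperature; pre-read flags interference.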
miR-21 FLuc – qHTS Assay for Modulators of miRNAs and/orActivators of miR-21 | HeLa miR-21 FLuc reporter, luciferase, 48 h | Potency, µM (highest dose often 38.3 µM), for inactives: at the top dose reporter change, positive = more light | 340,000 tested, under 10 active | AID 2288, 2010; active = well fitted rising curve with a large enough effect; inconclusive = small, poorly fitted or top-dose-only effect; inactive = no such curve, though single readings can be large or run the other way;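 further: % of control where 0% means no effect; miR-21 action dims this reporter so a rising signal means less miR-21 action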
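Using DMEM plus 10% FBS, HeLa miR-21-FLuc cells are incubated with test compounds (final up to about 40uM) for 48 hours; firefly luciferase signal is then imaged following reagent-mediated lysis.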
* marks the source's active call; other numbers are inactive results; ? = inconclusive; · = no result given.

Second line of a record: Rango dissoc inh	GLA inh pH 4.5	Rango complex inh	miR-21 FLuc
> COC(=O)c1ccc(N2C(=O)CC(N3CCC(O)(c4ccc(Br)cc4)CC3)C2=O)cc1 (stereo not given)
  10%	-1	3.4%	-2%
> ON=C1c2ccccc2-c2cc(Br)ccc21
  -4%	·	-1.1%	·
> CCOC(=O)c1sc2nc(CSc3ccccc3)nc(N3CCCN(C)CC3)c2c1C
  15%	-15	-1.0%	26%
> O=C(CNC(=O)c1ccco1)N/N=C/c1ccccc1[N+](=O)[O-]
  -11%	4	-3.8%	-8%
> COCCCNC(=S)N/N=C/c1ccc(N(C)C)cc1
  1%	0	-2.6%	-47%
> Cc1cc(NS(C)(=O)=O)c(=O)n(Cc2c(F)cccc2Cl)c1
  -6%	·	-0.5%	-5%
> Cc1cc(C)c(COCc2cc(/C=N/O)c(C)cc2C)cc1/C=N/O
  3%	-2	3.5%	14%
> CNC(=O)c1cc(S(=O)(=O)N2CC(C)OC(C)C2)ccc1N1CCCCC1 (stereo not given)
  3%	·	1.0%	0%
> COCCN=C1NN=C(c2ccc(C)c([N+](=O)[O-])c2)CS1
  -17%	-5	-1.3%	-66%
> CCOC(=O)C1(CC2CCCCO2)CCN(Cc2cc3ccccc3[nH]2)CC1 (stereo not given)
  -21%	-6	?	28%
> Cn1ccnc1/C(=N\NC(=O)c1ccccc1)c1cccc([N+](=O)[O-])c1
  18%	-9	5.3%	1%
> COc1ccc(C2(O)CC3CCC(C2)N3c2cc(C)nc(-c3ccccc3)n2)cc1 (stereo not given)
  0%	3	-1.0%	12%
> CC[n+]1c(P(=O)([O-])c2ccccc2)[nH]c2ccccc21
  1%	2	-1.3%	-5%
> CC1CCN(C(=O)CCc2ccc(S(=O)(=O)NC(C)C)cc2)CC1
  19%	-3	1.9%	3%
> O=C(NCC1CCCO1)c1ccccc1S(=O)(=O)c1ccc([N+](=O)[O-])cc1 (stereo not given)
  -1%	-8	-3.3%	1%
> COc1ccccc1NC(=O)CSc1nccc(=O)[nH]1
  21%	-4	-0.5%	-1%
> CCN(c1ccccc1)c1nc(Cl)nc2c1cnn2C
  ?	·	0.0%	·
> O=C(NC(=S)Nc1ccc2oc(=O)ccc2c1)c1ccco1
  14%	-6	2.0%	-37%
> O=C(CSC(=S)N1CCOCC1)c1ccccc1
  1%	2	-1.5%	6%
> O=C(O)c1cc2cccc(S(=O)(=O)N3CCCCC3)c2cc1O
  -24%	·	?	0%
> COc1ccc(CCC(=O)Nc2cccc(S(=O)(=O)N3CCCCCC3)c2)cc1
  -3%	·	-1.9%	·
> COC(=O)c1c(NC(=O)c2ccccc2)sc(C(N)=O)c1C
  -14%	7	-0.4%	3%
> COc1ccc2nc(/N=C(\N)NC(=O)C(C)(C)C)nc(C)c2c1
  -15%	·	-3.5%	-40%
> CC(C)C(OC(=O)c1ccco1)C(=O)NC1CCCCC1 (stereo not given)
  -6%	8	-1.6%	-6%
> O=c1c(-c2cccc([N+](=O)[O-])c2)[n+]([O-])c2ccccc2n1O
  -7%	8	?	1%
> OC1CCCN(C(=S)NCc2ccccc2)C1 (stereo not given)
  29%	-4	0.1%	0%
> COc1ccc(C)cc1NC(=O)CCNC(=O)c1ccco1
  25%	·	-0.1%	-5%
> CC(=O)NC(CCS(C)(=O)=O)C(=O)Nc1ccccc1 (stereo not given)
  17%	11	-0.2%	-5%
> Cc1c(NC(=O)c2cc(C(C)C)on2)c(=O)n(-c2ccccc2)n1C
  1%	?	3.2%	-4%
> Cc1ccc(CNc2ccc3nnc(-c4ccccc4)n3n2)cc1
  -4%	11	-2.2%	-5%
> CCOC(=O)C1CCCN(C(=O)c2cc3cc4ccc(OC)cc4nc3o2)C1 (stereo not given)
  -5%	·	-0.6%	-5%
> Nc1cc(N)nc(SCC(=O)NCC(=O)Nc2ccc(F)c(F)c2F)n1
  4%	·	1.4%	·
> O=C(O)C1CC=CCC1C(=O)Nc1cccnc1 (stereo not given)
  -3%	4	5.7%	-5%
> CC(C)(C)S(=O)(=O)N1C[C@@H]2C(=CC[C@H]3C(=O)N(c4ccccc4)C(=O)[C@@H]23)[C@@H]1CCO
  ?	·	-0.8%	·
> Cc1nc(SCC(=O)Nc2ccccn2)n[nH]1
  1%	-4	0.0%	1%
> COc1ccc(CCCc2nnc(SCC(=O)Nc3ccccc3F)o2)cc1
  1%	-8	-2.2%	-13%
> Cc1nnc(SCC(=O)Nc2nsc(-c3ccc(C(C)(C)C)cc3)n2)s1
  3%	-3	0.3%	-56%
> O=C1CCC(C(=O)N2CCc3ccccc3C2)CN1CCCN1CCOCC1 (stereo not given)
  -8%	·	0.0%	-1%
> COc1ccc(OC)c(CCNC(=O)CN2C(=O)CCSc3ccccc32)c1
  7%	·	1.7%	-5%
> O=[N+]([O-])c1cccc(S(=O)(=O)c2ccc(NCCO)c([N+](=O)[O-])c2)c1
  10%	?	?	-1%
> Clc1cccc(NCc2ccccc2)n1
  -10%	2	-4.0%	-12%
> COc1ccc(OCc2nnc(SC(C)C(=O)Nc3ccc(N4CCOCC4)cc3)n2C)cc1 (stereo not given)
  -29%	·	-2.9%	·
> O=C(CSc1ncccn1)NCc1ccc2c(c1)OCO2
  13%	·	4.3%	-26%
> O=C(Nc1sc2c(c1C(=O)O)CCCC2)C(=O)N1CCOCC1
  16%	·	-1.7%	-33%
> O=C(NC1CC1)c1ccc2c(Cl)c3c(nc2c1)CCCC3
  0%	-15	7.7%	-39%
> O=C(Nc1ccccc1C(=O)NCCc1ccc(O)cc1)c1ccco1
  0%	·	0.0%	12%
> COc1cccc(-n2c(N)c(-c3nc4ccccc4[nH]3)sc2=S)c1
  -2%	-10	-0.4%	-3%
> CC1(c2ccccc2)NC(=O)N(CC(=O)Nc2ccc3c(c2)CCC3)C1=O (stereo not given)
  -3%	·	-2.3%	·
> COc1cccc2c(=O)n(CC(=O)Nc3ccc(F)cc3)ccc12
  12%	4	3.7%	-11%
> S=C(NCc1ccccc1)Nc1cccc(Cl)c1
  -18%	-2	-0.3%	20%

Continued:
Second line of a record: Rango dissoc inh	GLA inh pH 4.5	Rango complex inh	miR-21 FLuc
> O=C(NCc1ccncc1)C1CCN(S(=O)(=O)c2cccc(C(F)(F)F)c2)CC1
  29%	·	-5.3%	-3%
> O=[N+]([O-])c1cc(-n2cnnn2)ccc1N1CCC(Cc2ccccc2)CC1
  13%	-1	0.6%	-11%
> S=c1[nH]nc(Cn2cnc3ccccc32)n1-c1ccccc1
  -7%	6	-1.6%	-3%
> O=C(CSc1ncn[nH]1)NCCc1ccc(Cl)cc1Cl
  -24%	·	3.3%	-3%
> CN(CCC#N)C(=O)COC(=O)c1cc(Cl)cc(Cl)c1N
  -9%	26	0.0%	-11%
> CC(=O)C1=C(O)C(=O)N(c2ccc(Br)cn2)C1c1ccccc1F (stereo not given)
  12%	1	-0.2%	-14%
> O=C1C=C(NCc2ccc(Cl)c(Cl)c2)CC1
  -5%	-1	0.5%	14%
> CSCCC(=O)N(C)CC1CCN(CCc2cccc(C(F)(F)F)c2)CC1
  -28%	·	?	0%
> COc1ccc(C)cc1NC(=O)c1c([N+](=O)[O-])cnn1C
  8%	·	-0.1%	-4%
> COc1ccc(CNC(=O)Cn2nc(C(F)(F)F)cc2C)cc1
  5%	-4	-2.3%	-9%
> CN(C(=O)COC(=O)c1nc(Cl)ccc1Cl)c1ccccc1
  -3%	·	-1.0%	-2%
> Cc1cc(=O)oc2cc(NC(=O)c3ccccc3Cl)ccc12
  18%	·	?	-82%
> COc1cccc(OCC(=O)NNC(=O)c2cnccn2)c1
  -4%	4	0.7%	-7%
> O=C(CN(CC(=O)N1CCOCC1)S(=O)(=O)c1ccc(Br)s1)N1CCOCC1
  -14%	·	-1.8%	·
> CCOC(=O)c1n[nH]n(-c2cc(Cl)cc(Cl)c2)c1=O
  15%	-14	-1.5%	1%
> COc1ccc(C(=O)OCC[N+]2(C)CCOCC2)cc1
  2%	-5	?	-1%
> Cc1cccc(C)c1NC(=O)C1(N2C(=O)CC2c2ccccc2)CCCCC1 (stereo not given)
  -21%	6	-1.0%	-1%
> O=C(COC(=O)c1ccc(Cl)cc1)NCC1CCCCC1
  0%	·	-1.6%	·
> Cc1ccc(N(CC(=O)NN=C2CCN(C)CC2)S(=O)(=O)c2ccc(C)cc2)cc1
  1%	0	-1.9%	-6%
> Oc1ccccc1CNn1cnnc1
  5%	1	1.9%	0%
> COc1ccc(N2C(=O)CC(Sc3nc(C)cc(C)n3)C2=O)cc1OC (stereo not given)
  ?	·	8.5%	3%
> O=C(COC(=O)CCc1nc2ccccc2s1)Nc1ncc(Cl)cc1Cl
  -1%	0	-2.1%	-2%
> COc1cc2nc(/C=C/c3cc(OC)c(OC)c(OC)c3)sc2cc1SC
  ?	12	?	?
> COc1cccc(OCCn2cc(C(C)=O)c3ccccc32)c1
  ?	·	0.0%	7%
> CCCCCCCc1c(O)nc(SCCN(C)C)[nH]c1=O
  0%	2	4.1%	1%
> O=C(CNC(=O)c1ccccc1F)N/N=C/c1cccnc1
  16%	·	0.6%	-27%
> O=C(O)c1c2c(nc3ccccc13)CCCCC2
  -9%	-8	0.4%	-7%
> COc1ccc2nc(N(CCN(C)C)C(=O)c3ccc(C(=O)c4ccccc4)cc3)sc2c1
  1%	·	1.9%	-7%
> Cc1cc(=O)c(C(=O)O)nn1-c1ccccc1C(F)(F)F
  0%	·	0.4%	10%
> CC(=O)Oc1ccc([N+](=O)[O-])cc1N1C(=O)c2ccccc2C1=O
  -8%	-12	10%	1%

3 of the entries above in order of their number in Rango complex inh, rising.
mol	Rango dissoc inh	GLA inh pH 4.5	Rango complex inh	miR-21 FLuc
COc1ccc(CNC(=O)Cn2nc(C(F)(F)F)cc2C)cc1	5%	-4	-2.3%	-9%
CC(C)(C)S(=O)(=O)N1C[C@@H]2C(=CC[C@H]3C(=O)N(c4ccccc4)C(=O)[C@@H]23)[C@@H]1CCO	?	·	-0.8%	·
COc1cccc(OCC(=O)NNC(=O)c2cnccn2)c1	-4%	4	0.7%	-7%

(next part)
Second line of a record: Rango dissoc inh	GLA inh pH 4.5	Rango complex inh	miR-21 FLuc
> O=C(NCCN1CCCC1)c1ccc2c(c1)N(Cc1cccc(Cl)c1)C(=O)c1ccccc1S2(=O)=O
  -8%	·	0.0%	3%
> CC1N(C)c2cccc3cccc(c23)N1C
  -5%	3	1.7%	0%
> Cc1cnc(C(=O)NCC(c2ccccc2)c2ccccc2)cn1
  0%	2	1.0%	1%
> COc1cccc(Sc2cc(N3CCOCC3)nc(-c3ccccc3)n2)c1
  -3%	-7	?	-17%
> Cc1ccc(N2C(=O)CC(Cc3cc(C)cc(C)c3)C2=O)cc1 (stereo not given)
  2%	1	-3.5%	-1%
> COC(=O)C1(CCSC)NC(c2ccco2)C2C(=O)N(C)C(=O)C21 (stereo not given)
  20%	1	3.1%	-1%
> COC(=O)c1cc(=O)nc2sc3ccccc3n12
  12%	2	?	5%
> COc1ccccc1NC(=O)c1ccc(NC(=O)CNC(=O)c2ccc(OC)c(OC)c2)cc1
  -9%	·	-1.8%	-4%
> CC(C)CC(=O)NC(=S)NNC(=O)c1cccc([N+](=O)[O-])c1
  -7%	?	0.3%	8%
> CC(=O)c1ccc(NC(=O)COC(=O)c2c[nH]c3ccccc23)cc1
  0%	·	4.2%	·
> O=C(CN1C(=O)c2ccccc2S1(=O)=O)Nc1cccnc1
  18%	1	-0.9%	1%
> O=C1CC(c2ccc3ccccc3c2)NN1 (stereo not given)
  -5%	·	-8.4%	·
> COc1ccc(NC(=O)c2cc(C)nn2-c2ccccc2)cc1
  -1%	·	-0.7%	-23%
> CC(C)C(=O)Nc1c2c(nn1-c1ccc([N+](=O)[O-])cc1)CS(=O)(=O)C2
  27%	·	6.7%	-6%

A portion of the library; rates above refer to the full screens.
